Rce1 inhib: blocks yeast Ras-converting enzyme; Q03530; yeast membranes, quenched prenylated peptide cleavage fluorescence; calls only; 290,000 tested, 0.27% active; AID 2563;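 active means fall in fluorescence gain of 50% or more versus controls, with final raw signal at or below 3038400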;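 further: plate controls were neutral control wells for no effect and wells lacking membranes for full effect; tested at 10 µM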
Target sequence (Q03530 whole entry, looked up): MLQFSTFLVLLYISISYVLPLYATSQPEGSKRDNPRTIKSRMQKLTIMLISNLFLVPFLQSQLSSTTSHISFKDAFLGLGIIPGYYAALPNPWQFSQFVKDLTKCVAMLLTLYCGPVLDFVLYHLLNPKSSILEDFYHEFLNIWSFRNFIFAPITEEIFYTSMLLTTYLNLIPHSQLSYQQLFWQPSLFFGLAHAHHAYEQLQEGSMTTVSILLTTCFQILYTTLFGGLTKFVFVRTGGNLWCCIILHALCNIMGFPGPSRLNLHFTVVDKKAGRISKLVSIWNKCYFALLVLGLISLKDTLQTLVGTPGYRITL
CSC inhib: blocks cancer stem cells. 300,000 tested, 1.1% active. inhibition, % at 7.5 µM. cancer stem cell-like cells viability, luminescence;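 active means mean at 75% or more and at least half the replicates too; tested in HMLE shEcad cells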;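 further: 0% = median of negative and 100% = median of positive control wells; the first replicate is given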
Env fusion inh: inhibitors of HIV Env-mediated cell fusion | inhibition, % at 12.3 µM | 360,000 tested, 1.1% active | HeLa-JRFL Env/CEM21 cell fusion, luciferase | AID 651610;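 active means mean replicate inhibition score of at least 50 and every replicate individually at or above 50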;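 further: 0% = plate neutral controls and 100% = maraviroc near 300 nM; one replicate is shown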
PABP FP inh: blocks human PABP binding to poly(A) RNA | inhibition, % at 35 µM | 290,000 tested, 1% active | P11940 | fluorescence polarization;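 active means 50% or more with normal probe brightness, or confirmed in later tests; about a fifth of its hits are not listed in these tables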;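 further: calls also rest on retests at 20 µM and on dose response follow-up; controls were probe without protein and protein plus probe with vehicle; some compounds called inactive have numbers as strong as hits; many hits fall short of the cut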
Target sequence (P11940 whole entry, looked up): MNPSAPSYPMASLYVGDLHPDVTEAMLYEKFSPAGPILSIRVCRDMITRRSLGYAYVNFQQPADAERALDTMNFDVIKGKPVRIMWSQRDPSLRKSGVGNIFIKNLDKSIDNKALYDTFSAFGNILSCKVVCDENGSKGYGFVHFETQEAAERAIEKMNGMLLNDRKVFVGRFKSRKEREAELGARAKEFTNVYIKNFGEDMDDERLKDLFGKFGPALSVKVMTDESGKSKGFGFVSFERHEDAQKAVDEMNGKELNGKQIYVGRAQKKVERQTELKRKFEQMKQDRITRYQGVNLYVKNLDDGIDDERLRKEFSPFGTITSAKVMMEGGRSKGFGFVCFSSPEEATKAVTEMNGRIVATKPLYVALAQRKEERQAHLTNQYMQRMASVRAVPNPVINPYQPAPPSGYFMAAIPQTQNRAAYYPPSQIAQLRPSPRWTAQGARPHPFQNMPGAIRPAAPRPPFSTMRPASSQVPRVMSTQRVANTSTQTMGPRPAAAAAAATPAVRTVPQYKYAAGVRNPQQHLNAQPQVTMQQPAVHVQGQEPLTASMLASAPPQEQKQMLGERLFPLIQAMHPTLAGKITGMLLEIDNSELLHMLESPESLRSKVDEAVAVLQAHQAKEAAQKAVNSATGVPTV
eIF4H inh: inhibitors of RNA binding by human eIF4H. Q15056. eIF4H fluorescence polarization binding assay. inhibition, % at 35 µM. 290,000 tested, 0.94% active. AID 2012;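 active means 50% or more with normal probe brightness, or confirmed in later tests; about a fifth of its hits are not listed in these tables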;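 further: calls also rest on retests at 20 µM and on dose response follow-up; 0% = protein and probe with vehicle and 100% = probe without protein; strong numbers were not always called active; many hits fall short of the cut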
MT1-MMP act inh: MT1-MMP (human) activation inhibition. HT1080 RFP-PRO-GFP cells, GFP/RFP ratio fluorescence, overnight; percent of plate control window, DMSO zero. P50281. GFP/RFP ratio change, % at 20 µM. AID 651647. 360,000 tested, 0.061% active;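 active means GFP/RFP ratio change of at least 30% with cell ATP level not reduced by more than half and red fluorescence within 50% of control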; further: strong numbers were not always called active
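Assay system: HT1080 RFP-PRO-GFP cells | Dosing: 20 µM single dose, 1% DMSO | Incubation: Cells overnight before dosing, compound overnight, 37 °C, 5% CO2 | Evaluation: GFP/RFP fluorescence ratio | Control set: DMSO-only wells and HT1080 RFP-L50D-GFP cell wells as references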
UUG fidelity: modulators of start codon recognition fidelity in yeast | 350,000 tested, 0.13% active | S. cerevisiae UUG-firefly luciferase reporter, luminescence/redox ratio | activity score, % at 18.7 µM;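 active means replicate mean at a twofold rise or more, about +100% in these data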;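 further: firefly luciferase made from a UUG start codon reports start codon fidelity; reporter light over untreated wells divided by growth signal over untreated wells; some hits fall short of that in this replicate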
eIF4H inh retest: further read-out of eIF4H inh, marked with its call; inhibition, %; compound at 20 µM; confirmation average;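 mean of two retest wells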
PABP FP inh retest: second read-out of PABP FP inh, no call of its own (marks repeat the call); inhibition, %; compound at 20 µM; confirmation repeats;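 mean of two retest wells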
MT1-MMP act inh RFP: further read-out of MT1-MMP act inh, marked with its call; RFP signal change, %; measured here: RFP expression control read;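 0 = vehicle wells; hits needed this value within 50% of zero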
The depositor's hits bear a star; i = inactive; / = no result given.

SMILES	Rce1 inhib	CSC inhib	Env fusion inh	PABP FP inh	eIF4H inh	MT1-MMP act inh	MT1-MMP act inh RFP	UUG fidelity	others
Cc1cc(C(=O)COC(=O)c2cccs2)c(C)n1-c1c(C)n(C)n(-c2ccccc2)c1=O	i	-13	-4	0	-2	1	5	-25
O=C(NCc1n[nH]c(=S)n1-c1ccccc1Cl)c1ccc(S(=O)(=O)N2CCCCC2)cc1	/	-1	1	-3	-9	-2	-4	-18
Cc1cccc(OCc2ccc(C(=O)N3CCOCC3)o2)c1	i	/	6	5	7	0	0	-13
O=C(CCN1C(=O)/C(=C/c2ccccc2Cl)SC1=S)NCCCN1CCOCC1	i	18	17	5	15	0	2	/
Cc1cc(Br)ccc1OCCn1ccnc1	i	-6	/	-7	-1	-4	1	-29
CCCc1cc(=O)[nH]c(SCC(=O)NC2CC2)n1	/	4	/	/	/	1	3	-5
Cc1ccc(O)c(C(=O)c2cnn(-c3ccc(S(=O)(=O)N4CCOCC4)cc3[N+](=O)[O-])c2)c1	i	/	/	-6	-15	2	-2	/
COc1cc(CCC(=O)NNC(=O)c2cccc(Cl)c2)cc(OC)c1OC	i	-3	5	0	6	0	1	-12
CCOC(=O)C1(Cc2ccc(OC)cc2)CCN(C(=O)c2sc(C)nc2C)CC1	i	7	19	-13	-8	1	-3	12
COc1cc2c(c(OC)c1OC)-c1ccc(NCc3ccccc3)c(=O)cc1C(NC(C)=O)CC2 (stereo unspecified)	/	/	8	/	/	21	3	11
CCOc1ccc(NC(=O)c2oc3ccccc3c2NC(=O)CC)cc1	i	-5	/	-8	0	/	/	/
CCc1nc2ccc(C(=O)N(C)CCCN(C)C)cn2c1N(C)Cc1cc2ccccc2s1	/	/	2	/	/	-5	0	-14
Nc1nnc(SCc2ccc3c(c2)OCO3)s1	i	25	0	3	-8	/	/	-21
Cn1nc(C(=O)N2CCN(c3ccccn3)CC2)c2ccccc2c1=O	i	-4	-156	/	/	/	/	/
CNc1cncc(-c2cccc(NS(C)(=O)=O)c2)n1	/	/	21	/	/	-7	-6	-16

Molecules from the list above that have a thiophene ring, fused or not:
SMILES	Rce1 inhib	CSC inhib	Env fusion inh	PABP FP inh	eIF4H inh	MT1-MMP act inh	MT1-MMP act inh RFP	UUG fidelity	others
Cc1cc(C(=O)COC(=O)c2cccs2)c(C)n1-c1c(C)n(C)n(-c2ccccc2)c1=O	i	-13	-4	0	-2	1	5	-25
CCc1nc2ccc(C(=O)N(C)CCCN(C)C)cn2c1N(C)Cc1cc2ccccc2s1	/	/	2	/	/	-5	0	-14

The listing continues:
SMILES	Rce1 inhib	CSC inhib	Env fusion inh	PABP FP inh	eIF4H inh	MT1-MMP act inh	MT1-MMP act inh RFP	UUG fidelity	others
Cc1ccc(C)c(Cn2cnc3c(cnn3C(C)(C)C)c2=O)c1	i	-9	/	-11	-4	7	-14	-24
COc1ccc(C(=O)Nc2cccc(-c3ccc4nncn4n3)c2)cc1OC	i	-31	14	-4	-8	2	-4	/
N#Cc1ccccc1COC(=O)c1ccc2c(c1)OCCO2	/	/	-17	/	/	2	2	-17
Cc1cccc(C2=NN(c3ccccc3)[C@@H](C(=O)N3CCOC3=O)[C@@H]2c2ccc([N+](=O)[O-])cc2)c1	/	/	-6	/	/	1	-4	4
Cc1[nH]ccc(=O)c1Oc1ncc(C(F)(F)F)cc1Cl	i	-4	1	12	-7	-2	1	-9
CCOC(=O)N1CCN(C(=O)c2ccc3nc(SCc4ccc(F)cc4)n(C)c3c2)CC1	i	6	/	-4	-8	/	/	5
Cc1c(C(=O)N(Cc2ccc(F)cc2)C2CCS(=O)(=O)C2)oc2ccccc12 (stereo unspecified)	i	-23	12	4	3	-2	-7	-3
CC(=O)N1CCN(c2ccc(NCc3ccc(C)cc3)cc2)CC1	i	/	14	-5	-9	12	7	/
CCSCc1nc2ccccn2c1Br	/	/	-3	-8	36	-3	7	/
CCOc1ccc(N2C(=O)CC(N3CCN(c4ccc(Cl)cc4)CC3)C2=O)cc1 (stereo unspecified)	i	0	9	3	-4	-2	-2	-3
CCc1nnc(NC(=O)CSc2nnc(-c3ccoc3C)n2-c2ccccc2)s1	i	-2	-1	-3	-7	-2	-9	-5
CCOC(=O)c1cc2sccc2n1CC(=O)N1CCc2ccccc21	i	2	62*	-8	-11	-10	-5	-20
Cn1cnnc1SCC(=O)Nc1ccccc1Oc1ccccc1	i	7	7	46	-3	2	6	-18
O=C(NCCC1=CCCCC1)c1cc(COc2c(F)cccc2F)on1	i	6	-1	1	-5	0	6	/
Cc1cc(Nc2ccc(F)cc2Cl)n2ncnc2n1	i	-2	-34	-3	6	-3	-4	-11
CCOC(=O)c1cnc(SCc2nc(N)nc(Nc3ccc(C)cc3)n2)nc1N	i	-15	/	6	-6	-9	-19	-4
Cc1ccc(C)c(NC(=O)CSc2n[nH]c(-c3ccccn3)n2)c1	i	/	0	-1	2	3	3	/
Cc1ccccc1NC(=O)CSc1nc2c(c(=O)n(C)c(=O)n2C)n1C	i	-1	-7	2	-4	4	4	-2
CCn1cc(C(=O)NC2CCc3ccccc32)c(=O)c2ccc(C)nc21 (stereo unspecified)	i	/	/	6	-14	/	/	/
COc1ccc2nc(NC(=O)CSc3nccc(C)n3)sc2c1	i	4	20	-8	-3	4	-5	-11
Oc1ccccc1C(Nc1nccs1)c1ccc2cccnc2c1O (stereo unspecified)	i	138*	60*	19	11	6	-3	-38
O=C(Cn1nc(-c2ccccc2)c2ccccc2c1=O)NCC1CCCO1 (stereo unspecified)	i	-9	/	-1	4	-5	-1	-10
NNc1cc2c(nn1)CCN(C(=O)c1ccccc1)C2	/	/	-6	/	/	6	4	-17
COc1ccc(C)cc1NC(=O)CSc1nnc2ccc(-c3cccnc3)nn12	i	-16	-10	/	/	-1	1	-21
COCCN1CCN(C(=O)C2CCC(=O)N(CCc3cccc(F)c3)C2)CC1 (stereo unspecified)	i	-11	11	-4	1	1	4	-8
Cn1c(CNC(=O)CCNC(=O)c2cccc(Cl)c2)cc(=O)n(C)c1=O	i	-2	2	2	-17	6	9	-5
CCOc1cc(NCc2ccccc2)c2ncn(C(C)C)c2c1	/	/	49	/	/	4	0	-11
C[C@]12c3[nH]c4ccc(Cl)cc4c3CCN1C(=O)[C@@H](CC(=O)NCc1cccc(C(F)(F)F)c1)C[C@@H]2C(=O)N1CCCCC1	/	/	2	/	/	-28	-27	-19
COc1ccc2cc(C(=O)NCc3ccccc3)c(=Nc3ccc(C(=O)O)cc3)oc2c1	i	4	-29	2	-2	12	-2	/
Cc1ccc(NC(=O)c2ccc(-c3nn(C)c(=O)c4ccccc34)cc2)cc1	i	5	75*	-4	-3	-2	-14	-2
CCCNC(=O)c1ccc2c(c1)ncn2-c1ccccc1OC	i	-2	/	1	6	9	7	-19
Cc1nnc(SCC(=O)NC2CC2)n1CCc1ccccc1	i	6	/	-3	3	-2	2	-15
C/C(=N\NC(=O)CSCc1ccccc1Cl)c1cc(O)ccc1O	/	34	-11	9	6	4	-3	/
C=CCn1c(C)cc(C(=O)CSc2n[nH]c(N)n2)c1C	i	-18	-102	4	0	0	2	-30
COc1cc(OC)cc(-n2nnnc2SCC(=O)Nc2nc3c(s2)CCCC3)c1	i	3	/	-2	-3	-4	-6	/
Cc1cnc(=O)[nH]c1SCc1cccc(C(F)(F)F)c1	i	-8	3	/	/	2	-4	-10
CSc1nncc(/C(C)=N\Nc2ccccc2)n1	i	0	/	8	4	-1	2	-19
O=c1c2c([nH]c3ccccc13)CCC2	i	-2	10	6	1	-2	-5	0
Cc1ccc(CNC(=O)CNC(=O)c2ccc(C(C)(C)C)cc2)n1C	/	4	-1	/	/	1	7	-3
CC(C)OCC(O)CN1CCN(CC(O)COc2ccc3c(c2)OCO3)CC1 (stereo unspecified)	i	-3	-4	-4	-8	0	1	-8
Cn1nc(C(C)(C)C)cc1N1C(=O)CCC1(C)C(=O)Nc1ccc2ccccc2c1 (stereo unspecified)	/	/	19	/	/	12	7	-2
O=C(CSc1nc(N2CCCCC2)nc(N2CCCCC2)n1)N1CCc2ccccc21	i	/	/	1	1	/	/	/
CC1(C)CC(=O)C2=C(C1)Nc1cc3c(cc1C2c1ccc2c(c1)OCO2)OCO3 (stereo unspecified)	i	-7	5	-7	0	-4	1	2
Cc1nn(-c2ccccc2)c(C)c1-c1nnc(C(F)(F)F)o1	i	/	-14	4	3	-3	-4	1
Cc1nc(-c2ccc(NC(=O)C(C)(C)C)cc2)c(-c2ccccc2)o1	i	-22	28	4	-14	0	-7	-16
COc1cc(OC)cc(C(=O)NC(=S)Nc2ccc3[nH]c(=O)[nH]c3c2)c1	i	-3	9	0	-8	0	-1	-21
CCCCOc1c(C(=O)Nc2ccccc2)nnn1-c1ccccc1	i	-17	12	0	-7	-1	-2	-3
O=C(NCc1cccs1)c1csc(COCCO)n1	/	/	3	/	/	-2	4	-15
COc1cc2c(cc1OC)C(C)N(CC(=O)Nc1ccc(C)c(S(=O)(=O)N3CCOCC3)c1)CC2 (stereo unspecified)	i	-10	13	-2	0	-2	-15	-2
CC(=O)c1cccc(S(=O)(=O)N2CCn3cccc3C2C)c1 (stereo unspecified)	/	-7	/	/	/	-12	1	3
O=C(COC(=O)C1CCC1)Nc1ccc(Oc2ccccc2)cc1	i	-8	-15	0	-7	2	8	-8
COc1ccccc1OCC(O)CO (stereo unspecified)	i	-1	/	8	4	-2	1	-12
CCOc1cc(/C=N/NC(=O)CN(CCc2ccccc2)S(=O)(=O)c2ccc(NC(C)=O)cc2)ccc1O	i	-2	8	2	-5	-3	-7	/
COC(=O)C(CCSC)NC(=O)C(NC(=O)C1CCC(C)CC1)C(C)C (stereo unspecified)	i	-3	/	12	0	-4	3	-17
Nc1nc(-c2ccccc2)nc(-c2ccccc2O)n1	/	11	-241	/	/	-2	-6	-10
CCOC(=O)C1CCCN(S(=O)(=O)c2ccc(F)c(C(=O)Nc3ccc(F)c(F)c3)c2)C1 (stereo unspecified)	/	14	22	13	-3	6	1	-7
C/C(=N\NC(=O)c1ccc(F)cc1)c1cccc(NC(=O)c2cccc(F)c2)c1	i	/	13	20	12	12	-4	-11
Cc1cc(NC(=O)COC(=O)COc2ccc3c(c2)CCC3)no1	i	/	-9	5	-5	1	9	-15
O=C(c1cc2cc([N+](=O)[O-])ccc2oc1=O)n1cccn1	i	-5	0	2.3*	98	-12	-2	7	eIF4H inh retest=1;PABP FP inh retest=88*
NC(=O)c1ccnc2c(O)cccc12	/	-5	17	/	/	1	0	-11
Additional structures.
SMILES	Rce1 inhib	CSC inhib	Env fusion inh	PABP FP inh	eIF4H inh	MT1-MMP act inh	MT1-MMP act inh RFP	UUG fidelity	others
O=C(NC(c1ccc(Cl)cc1)c1cccnc1)C1CCN(CCOc2ccc(Cl)cc2Cl)CC1 (stereo unspecified)	/	/	-30	/	/	-1	-3	-21
CC(C)(C)c1ccc(CN2N=Nc3ccccc3S2(=O)=O)cc1	i	-3	24	8	4	-7	-6	-4
COc1cccc(-c2ccc3ncnc(NCc4cccs4)c3c2)c1	/	45	1	/	/	0	-16	-16
COCCOC(=O)c1[nH]c2c(c1C)C(=O)CC(c1ccc(N(C)C)cc1)C2 (stereo unspecified)	i	12	/	1	1	-3	-7	-14
CC(O)c1nc2ccc(Cc3ccc4nc(C(C)O)[nH]c4c3)cc2[nH]1 (stereo unspecified)	i	-20	/	6	1	5	3	-2
COc1cc(NC(=O)COc2c(C)cc(C)cc2[N+](=O)[O-])c(OC)cc1Cl	i	-5	15	4	-14	-2	-4	/
COC(=O)C(Cc1ccc(O)cc1)NC(=O)C(CC(=O)OC(C)(C)C)NC(=O)OC(C)(C)C (stereo unspecified)	i	-11	-10	7	-1	5	4	/
CC(NC(=O)COC(=O)Cc1ccsc1)c1ccccc1 (stereo unspecified)	i	-5	-12	5	-1	3	4	/

Screens as filed in PubChem.
